High-throughput results from PubChem BioAssay.
PKD1 inh = inhibitors of human PKD1 kinase; Q15139; PKD1 kinase fluorescence polarization assay; inhibition, %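 (about 10 µM by stock and volumes)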; actives 0.056% (n = 200,000); AID 797;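 active = inhibition of 50% or more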;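 also: controls were vehicle for no effect and a reference inhibitor for full effect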
GALR2 ag = activates the human galanin receptor 2; O43603; actives 0.48% (n = 140,000); GALR2-expressing cells, agonist activation read-out; activation, %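 (tested at 5 µM)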;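 active = above mean plus 3 SD of all compounds, about 5% in these data, not always enough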;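 also: 0% = vehicle buffer wells and 100% = reference agonist at full effect; tested in CHO reporter cells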
INS promoter inh = TRM-6 insulin promoter activity inhibition; actives 0.9% (n = 130,000); AID 1273; TRM-6 cells (human fetal islet line), insulin promoter-eGFP reporter, imaging; reporter expression induced with tamoxifen; inhibition, % at 2 µM;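 active = inhibition above the mean plus 3 SD, with well images judged a real hit on visual review, cut at about 60% in these data, passing the limit was not always enough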
HSV replic up = HSV replication enhancement; AID 1956; HSV replication augmentation in cells, fold increase; actives 0.005% (n = 220,000); maximum fold increase;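 active = peak rise of 1.5-fold or more in the series; tested in PC3 cells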;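 also: first round at 10 µM; read as green reporter fluorescence; hits show the peak of a series up to 25 µM; 1 = signal of infected wells without compound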
RGS16-Gao HTS = RGS16-Galphao interaction regulator (human). binding response (% of control), % at 10 µM. O15492+P09471. actives 0.38% (n = 220,000). bead-based flow cytometry RGS16-Galphao binding, fluorescence; actives lie on both sides;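 active = below 25% or above 175%, edge rows of some plates excepted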;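 also: Galphao activated by GDP with aluminum fluoride before binding; 100% = wells without compound and 0% = beads without RGS; some results beyond the cut were filed as inactive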
Target sequence (O15492 whole entry, looked up): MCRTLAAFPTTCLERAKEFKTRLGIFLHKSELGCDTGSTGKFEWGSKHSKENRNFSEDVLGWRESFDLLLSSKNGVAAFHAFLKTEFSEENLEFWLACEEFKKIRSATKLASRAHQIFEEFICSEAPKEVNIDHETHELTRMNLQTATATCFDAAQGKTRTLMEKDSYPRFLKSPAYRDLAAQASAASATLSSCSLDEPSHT
Target sequence (P09471 whole entry, looked up): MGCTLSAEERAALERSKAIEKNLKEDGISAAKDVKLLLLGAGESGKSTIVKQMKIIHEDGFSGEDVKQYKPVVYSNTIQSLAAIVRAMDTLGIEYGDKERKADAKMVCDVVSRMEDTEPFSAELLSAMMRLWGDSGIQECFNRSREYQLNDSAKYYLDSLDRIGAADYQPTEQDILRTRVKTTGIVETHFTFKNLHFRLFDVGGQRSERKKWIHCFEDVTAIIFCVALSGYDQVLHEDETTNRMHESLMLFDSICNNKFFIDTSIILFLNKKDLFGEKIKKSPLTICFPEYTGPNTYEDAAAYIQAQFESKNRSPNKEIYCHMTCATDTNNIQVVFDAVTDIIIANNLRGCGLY
INS promoter inh cell count = second read-out of INS promoter inh, no call of its own (marks repeat the call); normalized cell count, %; measured here: cell count, toxicity; reference of the scale not given here;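 cells exposed to compound for 48 h; stained nuclei by imaging scaled within each plate; lower means fewer cells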
HSV replic up primary fold = further read-out of HSV replic up, marked with its call; fold increase; compound at 10 µM; measured here: primary screen fold increase 10 uM; tested in PC3 cells;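 GFP signal in the first replicate; 1 = infected wells without compound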
* hit, by the source's call; i = inactive; nt = no result given.

SMILES	PKD1 inh	GALR2 ag	INS promoter inh	INS promoter inh cell count	HSV replic up	HSV replic up primary fold	RGS16-Gao HTS
CCN1CCN(c2ncnc3sc(C(=O)Nc4ccccc4F)c(C)c23)CC1	-12	-1.0	nt	nt	i	0.86	100
Cc1cccc(OCCCn2c(=O)oc3ccc(C)cc32)c1	-1	nt	nt	nt	i	0.99	98
CCOC(=O)CN1NC2(CCC(C(C)(C)C)CC2)NC1=S (stereo not given)	1	-0.9	26	67	i	0.94	93
O/N=C1\CC/C(=N\O)c2nn(-c3ccc(Cl)cc3Cl)nc21	-5	-0.5	nt	nt	i	0.87	97
COC(=O)c1ccccc1NC(=S)NC(=O)c1ccccc1C	-8	-2.2	nt	nt	nt	nt	103
Cc1ccnc(SCCn2c(N(C)Cc3ccccc3)nc3c2c(=O)n(C)c(=O)n3C)n1	2	-1.9	nt	nt	i	0.9	nt
COC(=O)C1=C(C(=O)OC)SC(=C2C(=S)C(C)(C)N(C(=O)C(C)C)c3ccccc32)S1	2	-1.9	40	118	i	0.88	100
O=C(O)c1ccccc1Nc1ccnc(Cl)n1	nt	nt	nt	nt	i	1	96
CC1(C)CNC(=O)c2sc(N3CCOCC3)nc2C1	1	-3.0	-21	153	i	0.66	97
CCN(c1ccccc1)S(=O)(=O)c1ccc(NC(=S)NC(=O)c2ccc(Br)o2)cc1	-1	-0.6	0	88	i	0.97	101
CC(NC(=O)CSc1n[nH]c(=O)[nH]c1=O)C1CC2CCC1C2 (stereo not given)	nt	nt	nt	nt	i	0.88	87
Cc1cc2c(c(SCC(=O)NCc3ccc(Cl)cc3)n1)C(=O)OC2	1	nt	0	96	i	1	100
O=C(NC(=S)NCC1CCCO1)c1ccco1 (stereo not given)	-6	nt	8	84	i	0.98	103
COC(=O)C(=CC(=CN(C)C)C=C(C(=O)OC)C(=O)OC)C(=O)OC	nt	nt	nt	nt	i	0.88	98
CCCN1C(=O)CN(C2CCCCCC2)C(=O)C1c1ccc(C)cc1 (stereo not given)	3	-1.5	-230	138	i	1.1	94
O=C(CSc1nc(O)c(Cc2ccccc2)c(=O)[nH]1)Nc1ccccc1	-2	-0.7	21	144	i	0.89	99
CCOC(=O)c1cccc(NC(=O)N2CCOCC2)c1	8	nt	nt	nt	i	0.93	116
Cc1cccc(N2CCN(C(=O)c3ccc(N4CCCC4=O)cc3)CC2C)c1 (stereo not given)	-8	-1.4	nt	nt	i	0.98	100
NNC(=O)CNc1ccccc1Cl	-3	nt	nt	nt	i	0.91	108
CCOc1ccc(CN2CCNC(=O)C2CC(=O)OC)cc1 (stereo not given)	2	-1.6	nt	nt	i	1	96
CC(C)(C)C1CCC(=NNc2nc3ccccc3[nH]2)CC1 (stereo not given)	-9	nt	nt	nt	i	0.78	101
O=C(NCCCn1ccnc1)/C(=C/c1ccco1)NC(=O)c1ccco1	nt	nt	nt	nt	i	1	88
CC(c1ccccc1)n1cc(C(=O)NCC2COc3ccccc3O2)nn1 (stereo not given)	-5	0.3	39	86	i	0.87	96
Cc1ccc(NC2=CC(=O)CC(c3ccccc3)C2)cc1 (stereo not given)	8	1.6	nt	nt	i	0.54	109
CCCCNC(=S)N1CCn2cccc2C1c1ccc(F)cc1 (stereo not given)	-3	nt	nt	nt	i	1	103
(more compounds)
SMILES	PKD1 inh	GALR2 ag	INS promoter inh	INS promoter inh cell count	HSV replic up	HSV replic up primary fold	RGS16-Gao HTS
COc1ccc(-c2nc(-c3ccncc3)no2)cc1OC	-13	-0.6	-3	97	i	1	96
O=C(COC(=O)CCc1ccc(S(=O)(=O)N2CCOCC2)cc1)NCc1ccccc1Cl	6	nt	0	79	i	1	101
CCOC(=O)C1(C)Oc2cccnc2NC1=O (stereo not given)	-5	nt	nt	nt	i	0.95	99
COc1ccccc1CNC(=O)Cn1cnc2ccccc2c1=O	1	-0.6	23	90	i	1	166
CCCC(=O)NC(c1ccccc1Cl)c1c(O)ccc2ccccc12 (stereo not given)	-16	-0.2	16	111	i	1	103
CCN(CC)CCOC(=O)c1ccc(NC(=O)CNC(=O)C2CCCCC2)cc1	-10	-0.8	-28	124	i	0.97	99
CSc1ccccc1C(=O)NCCOc1ccccc1C	-7	nt	0	126	i	1.1	102
N#Cc1c(SCC(=O)O)nc(-c2ccccc2)c2c1CCCC2	-10	-1.6	-29	162	i	0.93	102
Cc1ccccc1CN(CC(=O)Nc1cccc([N+](=O)[O-])c1)S(=O)(=O)c1ccc(Cl)cc1	0	-1.7	0	106	i	1.1	90
COc1cccc(C2/C(=C(/O)c3cnn(-c4ccccc4)c3C)C(=O)C(=O)N2CCN(C)C)c1OC (stereo not given)	-1	-3.3	-10	62	i	1.1	102
CCC(=O)CCC(=O)c1ccc2ccccc2c1	-12	0.0	-10	78	i	1.1	52
CSCC[C@H](NC(=O)Nc1ccc(Oc2ccccc2)cc1)C(=O)O	nt	nt	nt	nt	i	0.86	108
O=C(COC(=O)CNC(=O)C12CC3CC(CC(C3)C1)C2)NC1CCS(=O)(=O)C1 (stereo not given)	-1	-0.5	nt	nt	i	1.1	101
O=C(O)c1ccc(COc2ccccc2/C=C2\NC(=O)N(Cc3ccccc3F)C2=O)cc1	0	nt	nt	nt	i	0.92	98
Cc1ccc(NC(=S)N2CCN(C3CCCCC3)CC2)cc1	3	-2.8	nt	nt	i	0.87	95
NC(=O)C1CCN(CCC(=O)Nc2ccc3c(c2)CCC3)CC1	5	-0.5	-393	28	i	0.93	nt
Cc1csc(NC(=O)c2cnccn2)n1	-15	-1.3	15	98	i	0.99	95
COc1ccc(CC(=O)NC(C)c2nnc(SCC(=O)c3ccc(Br)cc3)n2C)cc1 (stereo not given)	-5	-2.3	-236	79	i	0.75	96
CCOC(=O)C1CCN(c2c(NCCCN(C)C3CCCCC3)c(=O)c2=O)CC1	-9	-1.8	nt	nt	i	0.96	101
CN(C)c1cccc(NC(=O)c2ccco2)c1	-1	nt	nt	nt	i	1.1	94
Cc1nnc(NC(=O)c2cccc(NC(=O)C(C)C)c2)s1	-9	-3.2	5	189	i	1	104
COc1ccc(C(=O)N/C(=C/c2cccs2)C(=O)NC(C)(C)C)cc1OC	4	nt	nt	nt	i	1.1	94
CCCCCC1(C(=O)OCC)CC(CSC(=N)N)OC1=O (stereo not given)	7	nt	-73	75	i	0.98	110
COc1cccc(-c2noc(N)c2C#N)c1	2	-0.2	50	148	i	0.84	104
Cc1noc(NS(=O)(=O)c2ccc(NC(=O)Nc3ccc(Cl)c(Cl)c3)cc2)c1C	-5	-1.6	75*	73*	i	0.84	103
Additional records follow:
SMILES	PKD1 inh	GALR2 ag	INS promoter inh	INS promoter inh cell count	HSV replic up	HSV replic up primary fold	RGS16-Gao HTS
O=C(NCc1ccc(F)cc1)C(=O)NCC1OCCN1C(=O)c1ccc(Cl)cc1 (stereo not given)	-7	-1.1	-19	81	i	1.1	nt
COc1cc(O)c(C(C)=O)c(CC(=O)O)c1	nt	nt	nt	nt	i	1.2	86
COc1ccccc1NC(=O)c1c(N=Cc2cccc([N+](=O)[O-])c2)cnn1C	nt	nt	nt	nt	i	0.89	94
CCOc1ccc(C(O)c2nccn2C)cc1 (stereo not given)	-4	-0.8	37	55	i	0.93	82
Cc1cccc(CCNC(=O)CCc2nc(-c3ccccc3F)no2)c1	-2	0.1	18	86	i	0.92	97
CSc1nnc(Cn2c(=O)sc3ccccc32)n1CCc1ccccc1	-16	-2.3	nt	nt	i	0.89	87
CC1CCN(CCC(=O)Nc2ccc(Cl)cc2)CC1	1	nt	nt	nt	i	0.97	110
Cc1cccc(-n2cc(CN3CCCN(C=O)CC3)c(-c3cccc(F)c3)n2)c1	-5	nt	nt	nt	i	0.83	99
CCn1c(=O)cc(SCC(=O)Nc2ccc3c(c2)OCO3)c2ccccc21	-4	1.3	-16	116	i	0.84	95
Cc1oc(/C=N/NS(=O)(=O)c2ccccc2)cc1Br	-11	-1.1	-3	99	i	0.98	18
O=C(CSc1nnc(-c2cccnc2)o1)Nc1ccccn1	-3	-0.3	8	101	i	0.97	98
O=C(Nc1nnc(SCc2cccc3ccccc23)s1)C1COc2ccccc2O1 (stereo not given)	-3	0.4	nt	nt	i	0.96	102
COC(=O)Cc1[nH]c(Cl)nc1C(N)=O	nt	nt	nt	nt	i	1	100
CN(C)CCCN(Cc1ccc2c(c1)OCO2)C(=O)NC1CCCCC1	nt	nt	nt	nt	i	1.1	99
NC(=O)NOCc1c(F)cccc1Cl	4	nt	nt	nt	i	0.94	101
O=C(CCSCCc1ccccn1)Nc1nccs1	-1	-1.7	nt	nt	i	0.91	106
Cc1nc(CC(=O)Nc2nc(-c3ccccc3)cs2)cs1	-5	0.6	nt	nt	i	0.71	99
CCCc1cc(=O)n2[nH]c(NCc3ccc(OC)c(OC)c3)nc2n1	0	nt	-40	152	i	1	97
COC(=O)c1ccc(S(=O)(=O)NCc2ccc(S(N)(=O)=O)cc2)n1C	nt	nt	nt	nt	i	0.94	102
Fc1ccc(Cn2cnc3ccccc32)cc1	0	-0.6	-3	93	i	1.1	92
C=CCSc1nc2sc(-c3ccccc3)cc2c(=O)n1N	5	-2.0	nt	nt	i	0.95	102
O=C(Cc1cccs1)N1CCN=C1SCc1ccccc1Cl	-5	nt	nt	nt	i	0.98	104
CS(=O)(=O)Nc1ccc(C(=O)NCc2ccco2)cc1	5	-3.3	38	163	i	0.76	66
Nc1ccc2nc(SCc3ccc([N+](=O)[O-])cc3)sc2c1	8	-1.2	nt	nt	nt	nt	87
NS(=O)(=O)c1ccc(CNC(=O)CC23CC4CC(CC(C4)C2)C3)cc1	-2	-2.0	-49	85	nt	nt	99

No enrichment for hits (roughly 1.3% active in at least one column).
